Source: PubChem BioAssay (several laboratories)
HNF4A DNA FP: change in binding of human HNF4 alpha to DNA; activity change, % at 10 µM; HNF4a-FITC DNA binding, fluorescence polarization, 1 h; P41235; hit rate 0.3% among 360,000; in the data active = activity change above about 30%, passing the limit was not always enough;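 also: controls were the assay level and a saturating level of protein; the project sought stronger binding though the title names inhibitors; some compounds called inactive have numbers as strong as hits; positive values seem to mean higher polarization but the record does not say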
Target sequence (P41235 whole entry, looked up): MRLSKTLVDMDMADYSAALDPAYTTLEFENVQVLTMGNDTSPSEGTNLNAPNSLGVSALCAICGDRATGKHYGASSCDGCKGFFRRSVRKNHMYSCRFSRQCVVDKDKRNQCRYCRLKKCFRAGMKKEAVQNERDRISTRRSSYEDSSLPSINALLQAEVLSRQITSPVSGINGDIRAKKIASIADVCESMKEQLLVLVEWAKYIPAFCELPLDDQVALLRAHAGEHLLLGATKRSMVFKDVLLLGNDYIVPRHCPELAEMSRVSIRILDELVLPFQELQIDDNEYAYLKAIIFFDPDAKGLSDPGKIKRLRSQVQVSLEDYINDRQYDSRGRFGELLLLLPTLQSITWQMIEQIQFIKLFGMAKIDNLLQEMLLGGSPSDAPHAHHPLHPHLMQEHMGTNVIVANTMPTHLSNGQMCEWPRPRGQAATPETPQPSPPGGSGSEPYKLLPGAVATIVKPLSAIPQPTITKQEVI
AF4-AF9 inh: blocks AF4 peptide binding to human AF9. P42568. inhibition, % at 10 µM. AlphaScreen, biotin-AF4 peptide binding to FLAG-AF9. hit rate 0.47% among 350,000. AID 651704;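 active = every replicate reaching a set inhibition limit, whatever the replicate mean, cut at about 25% in these data; inconclusive = mean inhibition reaches that limit but some replicates miss it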;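 also: 0% = plate neutral control median and 100% = total signal loss; the record names both 10 and 1 µM as test concentration; the first replicate is given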
Ecoli growth: blocks Escherichia coli growth | AID 1053175 | hit rate 0.21% among 330,000 | OD600 absorbance (test concentration not listed) | OD600, 23 h; hits give low values;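 active = OD600 absorbance below the run mean of sample wells minus 3.6 SD, in any replicate, cut at about 0.56 in these data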;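 also: stock transfer was 300 nL into about 60 µL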
UCH37 DUB inh: inhibitors of human deubiquitinating enzyme UCH37. Q9Y5K5. AID 588478. hit rate 0.33% among 330,000. purified proteasome/UCH37, Ub-AMC cleavage fluorescence. inhibition, % (concentration not given with the values);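 active = mean of two replicates above 20%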;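 also: 0% = compound-free wells with enzyme and 100% = wells lacking proteasome; stock transfer was 100 nL into about 20 µL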
Target sequence (Q9Y5K5 whole entry, looked up): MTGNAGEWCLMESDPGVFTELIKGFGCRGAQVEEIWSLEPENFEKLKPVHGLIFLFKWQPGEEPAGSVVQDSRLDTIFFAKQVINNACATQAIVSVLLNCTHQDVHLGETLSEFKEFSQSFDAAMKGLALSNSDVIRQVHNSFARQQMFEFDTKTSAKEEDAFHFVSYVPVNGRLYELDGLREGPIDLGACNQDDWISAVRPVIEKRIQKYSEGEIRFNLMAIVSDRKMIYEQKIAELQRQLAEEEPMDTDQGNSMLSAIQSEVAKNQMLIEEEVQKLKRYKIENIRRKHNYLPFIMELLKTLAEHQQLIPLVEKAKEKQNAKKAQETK
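Reagent: Ub-AMC substrate; assay system: Proteasome-associated human UCH37 deubiquitinase; controls: no-proteasome and no-compound wells; read-out: % inhibition of Ub-AMC cleavage fluorescence; timing: 30 min preincubation with enzyme, 25 min cleavage at room temperature; signal: AMC fluorescence from Ub-AMC cleavage, excitation 355 nm, emission 460 nm; buffer or medium: Tris-HCl pH 7.4 plus ovalbumin, ATP-MgCl2, DTT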
RanGTP-Imp inh: inhibitors of RanGTP-importin-beta interaction, primary screen, biochemical, FRET, CFP-Ran, YFP-importin-beta, homogeneous; cell-free CFP-Ran/YFP-importin-beta FRET ratio; inhibition, % (concentration not given with the values); hit rate 1.1% among 300,000;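 active = most replicates above 15%; inconclusive = exactly half above 15%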;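 also: 0% = DMSO wells and 100% = Ran loaded with GDP instead of GTP; wells of about 40 µL received 100 nL stock; the first replicate is given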
Vif TR-FRET: inhibitors of Vif binding to APOBEC3G peptide, primary screen, biochemical, TR-FRET, GST-Vif 1-94, biotin-A3G peptide, dose response retest (AID 1117319); TR-FRET GST-Vif / biotin-A3G peptide binding; higher % means a stronger effect; test concentration not given here; strong numbers were not always called active; inhibition, %, or IC50 in µM where a hit was titrated; hit rate 0.57% among 260,000;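 active = above the screen mean plus three standard deviations and confirmed in dose response; inconclusive = results disagree or hit not tested in dose response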;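 also: Vif residues 1-94 fused to GST binding biotinylated APOBEC3G peptide 110-148; 0% = full assay without inhibitor and 100% = GST in place of GST-Vif; retest series ran down from 100 µM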
FGF22 binding: FGF22 (human) thermal shift binding | Q9HCT0 | hit rate 1.5% among 340,000 | calls only at 9.99 µM | recombinant FGF22 thermal shift, SYPRO orange fluorescence; percent of sucrose octasulfate shift, DMSO zero | AID 651658;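 active = melting point raised past a set limit in the mean and every replicate; inconclusive = no clear call; three in four hits are not shown here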
Target sequence (Q9HCT0 whole entry, looked up): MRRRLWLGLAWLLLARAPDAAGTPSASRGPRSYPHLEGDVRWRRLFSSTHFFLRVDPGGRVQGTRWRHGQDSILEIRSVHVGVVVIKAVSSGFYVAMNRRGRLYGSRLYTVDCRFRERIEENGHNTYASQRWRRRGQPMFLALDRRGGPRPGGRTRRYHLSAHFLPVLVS
* marks the source's active call; other numbers are inactive results. The list is partial; rates above refer to the full screens.

Results for CCOC(=O)CNC(=O)CSc1nnc(-c2ccco2)n1Cc1ccco1 ?
HNF4A DNA FP: 3.5; Ecoli growth: 0.73; UCH37 DUB inh: -1.4; RanGTP-Imp inh: -1.8; Vif TR-FRET: 1%

Results for COC(=O)c1ccccc1Sc1c(/C=N/OC(=O)c2ccccc2)c(C(F)(F)F)nn1C ?
HNF4A DNA FP: 0.0; RanGTP-Imp inh: 1.0; Vif TR-FRET: 21%

How did COC(=O)[C@@]1(Cc2ccc(OC)cc2)[C@H]2c3cc(C(=O)N4CCCC4)n(Cc4ccccn4)c3C[C@H]2CN1C(=O)c1ccccc1 do in these assays?
HNF4A DNA FP: 3.0; AF4-AF9 inh: 8.8; FGF22 binding: inactive

What do the screens show for `COc1cc2c(cc1OC)C(c1ccc(Br)cc1)NCC2` (stereo not given)?
HNF4A DNA FP: 2.3; AF4-AF9 inh: 3.8; Ecoli growth: 0.65; UCH37 DUB inh: 1.5; RanGTP-Imp inh: 0.7; FGF22 binding: inactive

Results for COc1cccc(CC2(CO)CCCN(Cc3ccc(CN4CCCCC4)s3)C2)c1 (stereo not given) ?
HNF4A DNA FP: 2.8; AF4-AF9 inh: 6.3; Ecoli growth: 0.72; UCH37 DUB inh: 1.3; RanGTP-Imp inh: 4.6; FGF22 binding: inactive

How did CSc1ccccc1NC(=O)c1ccco1 do in these assays?
HNF4A DNA FP: -0.7; Ecoli growth: 0.7; UCH37 DUB inh: 5.4; RanGTP-Imp inh: 2.1; Vif TR-FRET: 2%

How did CC(C)(C)CN1C(=O)C(=O)NC[C@H]1Cc1ccc(O)cc1 do in these assays?
HNF4A DNA FP: 6.5; AF4-AF9 inh: -2.4; UCH37 DUB inh: 0.2; RanGTP-Imp inh: 2.0; FGF22 binding: inactive

Results for Cc1sc2ncn(CC(=O)NCC(=O)N(C)Cc3ccccc3)c(=O)c2c1C ?
HNF4A DNA FP: -1.8; Ecoli growth: 0.71; UCH37 DUB inh: 3.7; RanGTP-Imp inh: 2.5; Vif TR-FRET: -6%

What do the screens show for `Nc1cc(S(=O)(=O)N2CCOCC2)ccc1Oc1cccc(Br)c1`?
HNF4A DNA FP: 0.7; AF4-AF9 inh: inconclusive; Ecoli growth: 0.62; UCH37 DUB inh: 2.9; Vif TR-FRET: 2%; FGF22 binding: inactive

Results for Cc1noc(C)c1S(=O)(=O)Nc1ccc(C(=O)NC2CCCCCC2)cc1 ?
HNF4A DNA FP: -1.3; Ecoli growth: 0.72; UCH37 DUB inh: 0.5; RanGTP-Imp inh: 0.3; Vif TR-FRET: inconclusive

What do the screens show for `C=CCn1c(-c2ccc(C)cc2)nc2ccccc21`?
HNF4A DNA FP: -2.0; Ecoli growth: 0.67; UCH37 DUB inh: 1.9; RanGTP-Imp inh: 0.5; Vif TR-FRET: 5%

How did CCCSc1nnc(Cn2c(=O)sc3ccccc32)n1-c1ccccc1 do in these assays?
HNF4A DNA FP: -0.6; AF4-AF9 inh: -2.5; Ecoli growth: 0.76; UCH37 DUB inh: 2.0; RanGTP-Imp inh: -0.7; Vif TR-FRET: 0%; FGF22 binding: inactive

How did COc1cc(CCC(=O)OCC(=O)Nc2ccc(F)cc2F)cc(OC)c1OC do in these assays?
HNF4A DNA FP: -3.2; AF4-AF9 inh: -4.2; Ecoli growth: 0.66; UCH37 DUB inh: 0.3; RanGTP-Imp inh: -5.3; Vif TR-FRET: -5%; FGF22 binding: inactive

What do the screens show for `COc1cccc2c(=O)n(CC(=O)Nc3ccccc3)ccc12`?
HNF4A DNA FP: 4.5; AF4-AF9 inh: 48*; Ecoli growth: 0.77; UCH37 DUB inh: 2.7; RanGTP-Imp inh: -3.5; Vif TR-FRET: 7%; FGF22 binding: inactive

How did Cc1oc2ccc(OC(C(=O)O)c3ccccc3)cc2c1C(=O)O (stereo not given) do in these assays?
HNF4A DNA FP: 0.5; AF4-AF9 inh: -27; Ecoli growth: 0.67; UCH37 DUB inh: 5.0; RanGTP-Imp inh: 0.1; Vif TR-FRET: 1%; FGF22 binding: inactive

Results for CCOc1ccc(C(=O)NCC(=O)OC(C)C(=O)NCc2ccco2)cc1OCC (stereo not given) ?
HNF4A DNA FP: 2.0; Ecoli growth: 0.64; UCH37 DUB inh: 0.5; RanGTP-Imp inh: 0.5; Vif TR-FRET: 6%

Results for O=C(Nc1nccs1)c1cc([N+](=O)[O-])ccc1Cl ?
HNF4A DNA FP: 0.3; AF4-AF9 inh: -1.4; Ecoli growth: 0.69; UCH37 DUB inh: 4.0; RanGTP-Imp inh: -0.4; Vif TR-FRET: 2%; FGF22 binding: inactive

What do the screens show for `Cc1cc(Cl)cc(C)c1OCC(=O)NC1CCCCCC1`?
HNF4A DNA FP: -2.1; AF4-AF9 inh: -1.7; Ecoli growth: 0.67; UCH37 DUB inh: -2.0; FGF22 binding: inactive

What do the screens show for `COc1ccccc1OCCNC(=O)CN(c1cccc(C)c1)S(=O)(=O)c1ccccc1`?
HNF4A DNA FP: -1.1; AF4-AF9 inh: -0.6; Ecoli growth: 0.71; UCH37 DUB inh: 4.0; RanGTP-Imp inh: 0.8; Vif TR-FRET: 0%; FGF22 binding: inactive

What do the screens show for `CC(/C=N/NC(=O)c1cc(-c2ccc(C)s2)[nH]n1)=C\c1ccccc1`?
HNF4A DNA FP: 1.8; AF4-AF9 inh: -0.3; RanGTP-Imp inh: -0.2; FGF22 binding: inactive

What do the screens show for `COc1ccc2nc(Sc3c([N+](=O)[O-])nc(C)n3Cc3ccccc3)[nH]c2c1`?
Ecoli growth: 0.73; UCH37 DUB inh: 4.8; RanGTP-Imp inh: -1.5; Vif TR-FRET: 10%

How did COCCOc1nc2c(c(=O)n(C)c(=O)n2C)n1Cc1cccc(OC)c1 do in these assays?
HNF4A DNA FP: 0.0; Ecoli growth: 0.75; UCH37 DUB inh: 1.2; RanGTP-Imp inh: 0.1; Vif TR-FRET: inconclusive

How did O=C(CS(=O)(=O)Cc1ccccc1)N1CCN(Cc2ccc3c(c2)OCO3)CC1 do in these assays?
HNF4A DNA FP: 0.6; Ecoli growth: 0.66; UCH37 DUB inh: 4.3; RanGTP-Imp inh: inconclusive; Vif TR-FRET: 8%

How did CCOC(=O)C1(Cc2ccccc2C)CCCN(S(C)(=O)=O)C1 (stereo not given) do in these assays?
HNF4A DNA FP: 4.5; AF4-AF9 inh: 0.9; Ecoli growth: 0.67; UCH37 DUB inh: -0.8; RanGTP-Imp inh: 1.5; FGF22 binding: inactive

How did COc1ccc(N(CC(=O)NCCSc2ccc(C)cc2)S(=O)(=O)c2ccccc2)c(OC)c1 do in these assays?
HNF4A DNA FP: -3.5; AF4-AF9 inh: -12; RanGTP-Imp inh: 3.0; Vif TR-FRET: 4%; FGF22 binding: inactive

How did O=C(CCc1c[nH]c2ccccc12)NCCc1ccccc1 do in these assays?
HNF4A DNA FP: -1.6; AF4-AF9 inh: 1.3; Ecoli growth: 0.69; UCH37 DUB inh: 0.1; RanGTP-Imp inh: 2.4; Vif TR-FRET: -3%; FGF22 binding: inactive

What do the screens show for `CC(C(=O)NC1CC(C)(C)NC(C)(C)C1)c1ccc([N+](=O)[O-])cc1` (stereo not given)?
HNF4A DNA FP: 2.2; AF4-AF9 inh: 1.8; Ecoli growth: 0.69; UCH37 DUB inh: 0.0; RanGTP-Imp inh: 0.8; Vif TR-FRET: 6%; FGF22 binding: inactive

How did Cc1cnc(NC(=O)CSc2nnc(-c3ccccc3)o2)s1 do in these assays?
HNF4A DNA FP: -1.2; Ecoli growth: 0.67; UCH37 DUB inh: 1.1; RanGTP-Imp inh: 1.0; Vif TR-FRET: 17%

Results for O=[N+]([O-])c1ccc(COc2ccc(-c3[nH]ncc3-c3ccccc3)c(O)c2)cc1 ?
HNF4A DNA FP: -1.0; AF4-AF9 inh: 1.4; Ecoli growth: 0.71; UCH37 DUB inh: 4.0; RanGTP-Imp inh: 2.1; FGF22 binding: inactive

What do the screens show for `CSc1nc(-c2ccccc2)nn1C(=O)c1ccccc1`?
HNF4A DNA FP: 1.9; Ecoli growth: 0.72; UCH37 DUB inh: 1.9; RanGTP-Imp inh: -0.4; Vif TR-FRET: -1%

How did Nc1nc(-c2ccco2)nn1C(=O)c1ccc([N+](=O)[O-])cc1 do in these assays?
HNF4A DNA FP: -0.5; AF4-AF9 inh: -0.5; Ecoli growth: 0.65; UCH37 DUB inh: 2.9; RanGTP-Imp inh: -0.6; Vif TR-FRET: 1%; FGF22 binding: inactive

How did CCn1c(C)c(C(C)=O)c(N2CCN(c3ccc(OC)cc3)CC2)nc1=S do in these assays?
HNF4A DNA FP: 16; AF4-AF9 inh: 32*; Ecoli growth: 0.68; UCH37 DUB inh: 5.3; RanGTP-Imp inh: 84*; Vif TR-FRET: 32%; FGF22 binding: inactive

How did COc1ccc(C2(CNC(=O)C(c3ccccc3)c3ccccc3)CCOCC2)cc1OC do in these assays?
HNF4A DNA FP: 2.1; AF4-AF9 inh: -0.8; Ecoli growth: 0.74; UCH37 DUB inh: 0.5; RanGTP-Imp inh: inconclusive; Vif TR-FRET: -4%; FGF22 binding: inactive

How did CC1(C)Cc2c(C#N)c(SCCC#N)nc(N3CCOCC3)c2CS1 do in these assays?
HNF4A DNA FP: -5.0; Ecoli growth: 0.73; UCH37 DUB inh: -2.3; RanGTP-Imp inh: 3.0; Vif TR-FRET: 8%

Results for COc1ccc(C(=O)NCCC2=CCCCC2)cc1 ?
HNF4A DNA FP: -0.5; UCH37 DUB inh: 2.3; RanGTP-Imp inh: 3.8; Vif TR-FRET: 3%

Results for COc1ccc(CS(=O)(=O)CC(C)(O)c2ccc(Cl)cc2)cc1 (stereo not given) ?
HNF4A DNA FP: -1.7; AF4-AF9 inh: -0.4; Ecoli growth: 0.63; UCH37 DUB inh: 2.2; RanGTP-Imp inh: -0.6; Vif TR-FRET: 4%; FGF22 binding: inactive

What do the screens show for `COc1ccccc1COc1ccc2c(C)c(CCC(=O)O)c(=O)oc2c1C`?
HNF4A DNA FP: -0.3; AF4-AF9 inh: 0.7; Ecoli growth: 0.71; UCH37 DUB inh: -118; RanGTP-Imp inh: 2.6; Vif TR-FRET: -1%; FGF22 binding: inactive

What do the screens show for `CCCC(=O)C1=C(O)C(C(=O)OC)C(C)(C)CC1=NCCCCCC(=O)O` (stereo not given)?
HNF4A DNA FP: 1.7; AF4-AF9 inh: -23; Ecoli growth: 0.67; UCH37 DUB inh: -1.3; RanGTP-Imp inh: 0.1; Vif TR-FRET: inconclusive; FGF22 binding: inactive

Results for Cc1nn(-c2ccc(Cl)c(Cl)c2Cl)c(=O)c2ccccc12 ?
HNF4A DNA FP: -0.2; Ecoli growth: 0.73; UCH37 DUB inh: 4.0; RanGTP-Imp inh: 0.3; Vif TR-FRET: 5%

Results for CCOc1cc(C2C(C(=O)OC)=CN(Cc3ccc(Cl)cc3)C=C2C(=O)OC)ccc1O ?
HNF4A DNA FP: -0.1; AF4-AF9 inh: -1.3; Ecoli growth: 0.68; UCH37 DUB inh: -70; RanGTP-Imp inh: 5.8; Vif TR-FRET: -1%; FGF22 binding: inactive
